High-throughput results as filed in PubChem BioAssay.
PINK1 modulator: PINK1 expression modulation; PINK1 immunofluorescence, high-content cytometry, 24 h; Potency, µM (highest dose often 76.6 µM), inactives show at the highest dose activation (PINK1 increase), actives largely listed as activators; actives 0.2% (n = 410,000); active = well fitted activation curve with a large enough effect; inconclusive = small, poorly fitted or top-dose-only effect; inactive = flat fitted curve, though single readings scatter; cell line not stated here;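 also: potency is read from the fitted curve at half-maximal effect; % of control where 0% means no effect; nearly all actives have a fitted effect of over 65% in size; a mitochondrial uncoupler was the plate control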
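PINK1 protein level read as immunofluorescence by microplate cytometer in a fixed, stained stable cell line after 24 h exposure to five compound concentrations, with CCCP as control.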
TRPML1 ag: agonists of human TRPML1 channel; TRPML1-expressing cells, Ca2+ dye fluorescence, FDSS; host cell line not named in the record; reference of the full effect not given here; actives 0.12% (n = 410,000); activation, % (no concentration beside the values); Q9GZU1; AID 624414; in the data active = activation above about 50%; inconclusive = about 30% to 50%; inactive = below about 30%; also: 0% is about no effect; the text of the record puts the active cut at 80%
Target sequence (Q9GZU1 whole entry, looked up): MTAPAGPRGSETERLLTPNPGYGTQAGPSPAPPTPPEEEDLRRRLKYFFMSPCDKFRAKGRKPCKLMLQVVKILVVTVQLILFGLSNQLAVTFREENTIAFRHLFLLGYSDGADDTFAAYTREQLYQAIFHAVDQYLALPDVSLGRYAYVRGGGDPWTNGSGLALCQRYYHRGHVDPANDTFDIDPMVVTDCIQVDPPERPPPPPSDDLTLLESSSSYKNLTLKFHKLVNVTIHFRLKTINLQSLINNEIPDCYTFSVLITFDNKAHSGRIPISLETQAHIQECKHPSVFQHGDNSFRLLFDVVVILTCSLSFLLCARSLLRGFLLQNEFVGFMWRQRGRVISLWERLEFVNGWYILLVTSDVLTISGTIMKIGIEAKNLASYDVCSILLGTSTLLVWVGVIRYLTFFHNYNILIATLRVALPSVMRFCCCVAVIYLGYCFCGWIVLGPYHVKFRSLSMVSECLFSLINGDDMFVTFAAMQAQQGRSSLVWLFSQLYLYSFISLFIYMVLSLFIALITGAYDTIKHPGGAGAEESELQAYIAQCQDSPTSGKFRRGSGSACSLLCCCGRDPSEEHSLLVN
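Calcium fluorescence on an FDSS kinetic reader gave the read-out. Tet-induced TRPML1-DL cells were plated overnight, dye-loaded (Ca8 with quencher, 45-90 min, room temperature, dark), then read 110 s after compound addition, and again 110 s after 4uM final 54-4 (EC80).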
TRPML1 blocker: human mucolipin-1 channel inhibition. Q9GZU1. TRPML1-inducible cells, Ca2+ dye fluorescence, FDSS; active compounds read low; inhibition of EC80 agonist-evoked calcium signal. activity change, negative = inhibition, % (test concentration not listed). actives 0.02% (n = 390,000); in the data active means activity change below about -50%; inconclusive means about -30% to -50%; inactive means above about -30%;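 also: stimulus is agonist 54-4 at its EC80 concentration; % is scaled to controls: 0 for no effect and ±100 for the full control effect; compound concentration not given in the record; the text of the record puts the active cut at -80%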
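TRPML1-DL cells, Tet-induced overnight (~16 h, 37 °C) at 1,500 cells/well, were loaded with Ca8 no-wash dye plus quencher for 45-90 min at room temperature. Compounds were pinned during FDSS kinetic reading; agonist 54-4 at EC80 (4 uM final) then added.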
Menin-MLL FL inh: displaces fluorescein MLL peptide from human menin | FP activity change, % at 61.4 µM | 290,000 tested, under 10 active | Fluorescence polarization, fluorescein-MLL peptide displacement from menin; inconclusive = falling polarisation curve, or a change in total fluorescence; inactive = total fluorescence flat and polarisation flat or rising; no compound was filed as active; the % refers to the polarisation; negative = inhibition;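 also: % of control where 0% means no effect; inhibitors lower the polarisation; unlabelled MLL peptide was the positive control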
TRPV1 potentiator: enhances activation of the human vanilloid receptor TRPV1. Q8NER1. TRPV1-expressing cells, Fluo-8 calcium influx, capsaicin EC20 potentiation; host cell line not named in the record; control for the full effect not named in the record. potentiation, % at 8.33 µM. actives 0.02% (n = 320,000). AID 540277; active means potentiation above 80%; inconclusive means 30% to 80%; inactive means below 30%; also: 0% is about no effect
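TRPV1-expressing cells were cultured overnight at 35.5C and loaded with Fluo-8 calcium dye for 40 to 90 min at room temperature. After a 10 s baseline, compound was added and calcium influx was read kinetically for 3 min (ex 480/em 520 nm).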
Sfp inh: Sfp phosphopantetheinyl transferase inhibition; Biochemical Sfp PPTase activity, qHTS; Potency, µM, inactives show max response, negative = inhibition, hits mostly inhibitors; actives 3.5% (n = 310,000); Q9F4F7; active = well fitted inhibition curve with a large enough effect; inconclusive = small, poorly fitted or top-dose-only effect, or another doubt; inactive = no such curve, though single readings can be large or run the other way;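 also: the enzyme is Sfp with the accession as filed and its product quenches rhodamine fluorescence; potency is read from the fitted curve at half-maximal effect; 0% = enzyme reaction without inhibitor and -100% = no enzyme wells; top concentration of the series not given in the record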
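Reaction rates are the 30-min fluorescence difference (ex 525, em 598 nm) in wells containing 15 nM Sfp, 5 uM rhodamine-CoA and 12.5 uM BHQ-2-YbbR at pH 7.6 with 10 mM MgCl2.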
ClpP mod: qHTS Assay for Activators of ClpP | ATP-dependent Clp protease proteolytic subunit (Bacillus subtilis (strain 168)), P80244 | purified B. subtilis ClpP, FRET peptide cleavage, 20 min | Potency, µM (titrated, usually from 57.5 µM), without a hit: at the top dose activity change, negative = active | actives 1.9% (n = 340,000) | AID 651965, 2013; active = well fitted falling curve with a large enough effect; inconclusive = small, poorly fitted or top-dose-only effect; inactive = no such curve, though single readings can be large or run the other way; also: potency is read from the fitted curve at half-maximal effect; the source files actives as falling curves though it sought activators and does not explain the sign; nearly all actives have a fitted effect of over 65% in size; many hits overshoot -100%
Target sequence (P80244 whole entry, looked up): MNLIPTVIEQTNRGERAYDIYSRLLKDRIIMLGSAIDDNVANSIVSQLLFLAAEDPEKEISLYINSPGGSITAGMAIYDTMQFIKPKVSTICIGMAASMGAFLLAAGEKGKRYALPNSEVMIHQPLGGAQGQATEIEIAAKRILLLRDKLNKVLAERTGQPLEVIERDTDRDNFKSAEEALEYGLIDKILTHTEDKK
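Purified B. subtilis ClpP, 10 microg/mL final in Tris/HCl pH8 with KCl, BSA, glycerol and Tween-20, cleaved an Abz/nitrotyrosine-quenched decapeptide. Fluorescence (ex 320, em 430) was read at 0 and 20 min at room temperature. Delta was normalized to 5.8 microM ADEP and DMSO/no-enzyme controls.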
The depositor's hits bear a star; ? = inconclusive; / = no result given; & = joins results of further samples; [ ] = remark or other dose.

SMILES	PINK1 modulator	TRPML1 ag	TRPML1 blocker	Menin-MLL FL inh	TRPV1 potentiator	Sfp inh	ClpP mod
COc1cccc(C(=O)Nc2ccccc2N2CCN(C(=O)c3ccccc3)CC2)c1	3.2%	-1.2	11	/	/	/	-0.3%
Cc1occc1-c1nnc(SCC(=O)Nc2nc(-c3ccccc3)cs2)o1	10µM*	-0.3	14	5.2	8	4%	0.1%
Cc1cc(C(=O)CSc2ncccn2)c(C)n1Cc1ccco1	1.9%	-0.8	8	1.8	-6	56µM*	/
CCN(CCCNC(=O)c1cc2cc3cc(OC)ccc3nc2s1)c1cccc(C)c1	0.2%	-0.1	26	/	/	/	-0.2%
Cc1ccc(S(=O)(=O)N2CCOCC2)cc1NC(=O)C(c1ccc(Cl)cc1)C(C)C (configuration not stated)	?	1.0	7	/	-2	/	-2.6%
COC(=O)CCC/C=C1/SCC(NC(=O)c2ccccc2)C1NC(C)=O (configuration not stated)	3.9%	-0.7	0	0.3	2	6%	-0.4%
COc1ccc(CCN2C(=O)c3ccccc3C2c2nnnn2C(C)C)cc1OC (configuration not stated)	-0.7%	-0.7	/	/	/	/	0.6%
Cc1ccc(C(=O)Nc2ccc(S(=O)(=O)N3CCOCC3)cc2)cc1C	1.2%	1.7	24	-7.6	-12	4%	-1.7%
O=C(CNc1ccc2c(c1)OCO2)N/N=C\c1ccccc1Cl	0.8%	0.3	-4	3.2	-2	-33%	6.7%
COc1cc(-c2noc(-c3ccc(N4CCN(C)CC4)c([N+](=O)[O-])c3)n2)cc(OC)c1OC	2.3%	-0.6	-15	/	/	/	0.8%
COCC(COCCCNC(=O)Nc1ccc(Br)cc1)OC (configuration not stated)	2.9%	-1.2	2	-1.5	13	0%	1.7%
Cc1cccc(C(=O)NNC(=O)c2ccc(-c3ccccc3)cc2)c1	4.5%	0.0	10	2.5	?	7%	-2.4%
Cn1cccc1C(=O)N1CCC2(CCCN(Cc3ccncc3)C2)CC1	-0.1%	/	/	6.6	/	-6%	/
O=C(Cc1ccc(NC(=O)C2CCCN(C(=O)C3CCCC3)C2)cc1)Nc1ccc(C(=O)N2CCOCC2)cc1 (configuration not stated)	0.1%	0.0	-1	/	/	/	-1.1%
Cc1cc(C)c(C)c(S(=O)(=O)NCc2ccc(C(=O)N3CCOCC3)cc2)c1C	-0.3%	-0.3	4	/	-3	11%	6.2%
c1ccc2c(c1)nc(NC1CCCCC1)c1nncn12	0.1%	0.2	4	11	-24	-16%	-9.5%
CCC(CC)c1nn2cc(-c3ccccc3)nc2s1	-0.3%	-1.1	-9	/	/	/	-1.1%
Cc1nc(-n2nc(C)c(Cc3ccccc3Cl)c2C)sc1C(=O)N1CCCCC1C (configuration not stated)	1.1%	0.4	2	/	/	/	0.0%
CN(C)S(=O)(=O)N(CC(=O)NCc1ccccc1)c1ccccc1	1.2%[38.3 µM]	1.1	-15	3.8	10	8%	-1.0%
Cc1cc(C)n(CCNC(=O)[C@H]2O[C@@H](n3ccc(=O)[nH]c3=O)[C@H](O)[C@@H]2O)n1	-0.1%	-0.6	/	/	/	/	-2.8%
Cc1cccc(NNC(N)=S)c1	0.5%	-0.6	11	-1.9	7	14µM*	/
Nc1nc(SCC(=O)Nc2ccccc2)nc2nc3c(cc12)CCCC3	5.8%	3.3	29	18	0	-4%	-0.8%
CC(Cc1ccccc1)NC(=S)CN1CCCC1=S (configuration not stated)	0.9%	-0.5	6	4.3	-7	14%	-3.3%
C=CCC1CCCCC12NC(=O)NC2=O (configuration not stated)	0.7%	-0.5	-7	1.5	-6	-2%	-1.0%
Cc1ccc(N=Nc2c(N)n[nH]c2N)cc1	1.5%	-0.4	8	-0.8	4	10%	/
O=C(Nn1c(-c2ccc(F)cc2)nc2ccccc2c1=O)C1CCCCC1	-1.0%[38.3 µM]	0.1	18	-0.9	-9	-1%	-1.4%
COc1ccc(N2C(=O)C3CCCCC3C2=O)cc1NC(=O)c1ccccc1 (configuration not stated)	-2.1%	1.2	10	4.6	5	25%	/
COc1cc(-c2nnc3sc(-c4ccco4)nn23)cc(OC)c1OC	8.7%	-1.0	5	0.5	9	16%	0.1%
COc1cccc(OCC(=O)NC2CC(=O)N(c3cccc(OC)c3)C2)c1 (configuration not stated)	-1.0%	-0.7	-27	/	/	/	1.8%
CC(C)P(=O)(Cc1cccc(C#N)c1)C(C)C	/	0.9	5	-2.4	-13	18%	-5.7%
CC(C)N1CN=C(Nc2nc3ccccc3o2)NC1	0.4%	-0.7	-3	0.1	2	12%	/
Cc1ccc(S(=O)(=O)NCCC(=O)NC2CCC(C)CC2)cc1 (configuration not stated)	1.1%	1.3	2	/	-7	/	-0.6%
O=C(CSc1nc2c(sc3ccccc32)c(=O)n1CCCN1CCCC1)NCc1ccco1	1.7%	-0.3	11	0.4	10	-5%	/
CC(=O)N1CCc2cc(S(=O)(=O)NC(CC(C)C)C(=O)NCCc3cccc(C)c3)ccc21 (configuration not stated)	0.1%	-1.0	-7	/	/	/	0.0%
CSc1ccc(OC2(C)CCN(Cc3ccccc3)C2)cc1 (configuration not stated)	10.0%	-0.4	/	/	/	/	-0.5%
Cc1cnc(NC(=O)Nc2ccccc2)c(C)n1	-0.8%	0.8	1	1.1	12	9%	3.3%
O=C(COC(=O)C1CC1)Nc1nc(-c2ccc(F)c(F)c2)cs1	0.5%	-1.0	-11	/	-24	/	-1.5%
CCN(CC)C(=O)CC(c1cc(OC)c(OC)c(OC)c1)c1c(O)cc(OC)cc1OC (configuration not stated)	0.2%	1.3&0.1	-7&-4	-2.4&-0.8	0	19%&9%	-5.6%
COc1cc(C(=O)N/N=C/c2coc3ccccc3c2=O)cc(OC)c1OC	-0.8%	3.0	16	2.5	24	13%	48%
O=C1c2ccccc2C(=O)N1c1ccc(O)cc1	-0.6%	-0.7	/	/	/	/	-1.6%

Among those listed so far, two have an NH in an aromatic ring:
SMILES	PINK1 modulator	TRPML1 ag	TRPML1 blocker	Menin-MLL FL inh	TRPV1 potentiator	Sfp inh	ClpP mod
Cc1cc(C)n(CCNC(=O)[C@H]2O[C@@H](n3ccc(=O)[nH]c3=O)[C@H](O)[C@@H]2O)n1	-0.1%	-0.6	/	/	/	/	-2.8%
Cc1ccc(N=Nc2c(N)n[nH]c2N)cc1	1.5%	-0.4	8	-0.8	4	10%	/

Additional compounds.
SMILES	PINK1 modulator	TRPML1 ag	TRPML1 blocker	Menin-MLL FL inh	TRPV1 potentiator	Sfp inh	ClpP mod
NC(=O)COc1ccc(C23CC4CC(CC(C4)C2)C3)cc1	0.9%	2.2	9	-3.9	-9	21%	0.6%
Cc1ccc(C(=O)OCC(=O)NCc2ccc3c(c2)OCO3)o1	-1.5%	-0.6	16	/	/	/	/
COc1cccc(C=O)c1OCCCOc1cccc2cccnc12	14%	0.0	13	3.7	-4	-6%	6.3%
Cc1cc(C)cc(NC(=O)Cn2c(=O)n(Cc3ccco3)c(=O)c3oc4ccccc4c32)c1	5.8%	1.5	28	/	/	/	-1.0%
COc1ccc(C)cc1NC(=O)c1cc2ccccn2n1	3.6%	-0.4	37	/	/	/	?
COc1cc(C(=O)NNC(=O)/C=C/c2ccccc2)cc(OC)c1OC	1.0%	2.3	10	/	/	/	/
COc1cc([N+](=O)[O-])ccc1-c1ccc(/C=C2\C(=O)ON=C2c2ccccc2)o1	4.8%	0.5	-3	/	/	/	-0.9%
COC(=O)c1cn(C(=O)c2ccccc2Cl)c2ccccc12	4.9%	1.1	-23	0.9	1	5%	/
CC(=O)c1c(C)nc(-c2ccc(OCC(=O)Nc3ccccc3)cc2)n1O	-0.2%	1.1	-10	-6.5	16	-1%	-0.7%
COC(=O)c1ccccc1NC(=O)C(Cc1ccccc1)N1Cc2ccccc2C1=O (configuration not stated)	22%	3.0	5	/	/	/	-19%
CN(C)S(=O)(=O)N1CCN(c2cc(Cl)ccc2Cl)CC1	3.3%	3.0	1	-3.6	-4	6%	0.5%
CCC(N)C12CC3CC(CC(O)(C3)C1)C2 (configuration not stated)	3.4%	-0.5	-7	2.1	2	-10%	0.5%
CCC(C)NC(=O)CNC(=O)Cn1c(C)cc2ccccc2c1=O (configuration not stated)	-4.0%	2.5	-3	4.2	3	13%	?
COc1ccc(/C=C/C(=O)NC(=S)NNC(=O)Cc2cccs2)cc1OC	0.1%	1.4	7	0.4	18	-3%	2.6%
CCOC(=O)C1CCN(C(=O)c2nn(-c3ccc(OC)c(Cl)c3)c(=O)c3c2c2ccccc2n3C)CC1	3.3%	-0.2	-11	/	/	/	?
CCN(CCNC(=O)C1CCCN(c2ncnc3c2nc2n3CCCCC2)C1)Cc1ccccc1 (configuration not stated)	-1.4%	-1.3	6	/	18	2%	0.7%
O=C1C2CC=CCC2C(=O)N1c1ccc(NCCc2ccc(Cl)cc2)c([N+](=O)[O-])c1 (configuration not stated)	0.3%	0.4	56	-0.1	23	2%	-1.7%
CCO[C@@H]1OC(C(=O)O)=C[C@H](c2csc3ccccc23)[C@H]1CCCO	1.8%	0.6	-6	-2.4	5	21%	-3.3%
O=C(Nc1ccccc1F)n1ncc2cc(Cl)ccc21	-2.2%	2.2	18	-0.1	-5	6%	-0.8%
Cc1cc(Br)c(Cl)cc1NC(=O)CN1C(=O)C2C3CC(c4ccccc4)C(C3)C2C1=O (configuration not stated)	3.4%	-0.4	?	3.1	8	-9%	1.6%
COc1ccc(C(=O)NCC(=O)OCC(=O)c2c(C)[nH]c3ccccc23)cc1OC	0.2%	-0.8	-2	/	/	/	1.1%
Cc1ccccc1CNC(=O)C(=O)NCC1CCCN1S(=O)(=O)c1cccs1 (configuration not stated)	1.0%	-0.6	9	/	20	/	0.7%
Cc1ccccc1CC(=O)Nc1ccc2c(c1)c(=O)n(C)n2-c1ccccc1F	2.1%	0.0	/	/	/	/	4.1%
CC(C)(C)c1ccc(C(=O)CCC(=O)OCC(=O)NCCc2ccc(S(N)(=O)=O)cc2)cc1	0.3%	1.3	20	/	5	/	-3.6%
CCOc1ccccc1CNC(=O)c1ccc(NC(=O)N2CCSc3ncccc32)cc1	-1.6%	0.9	16	/	/	/	?
O=C(N1CCN(c2ccccc2F)CC1)C12CC3CC(CC(C3)C1)C2	-2.5%	-0.2	0	1.1	-2	8%	1.4%
Cc1ccc(-n2nc(C(=O)NCc3ccc(C)o3)c3c4ccccc4n(C)c3c2=O)cc1	3.0%	-0.3	5	2.7	-5	5%	-3.6%
